PrP UTR inh: inhibition of PrP 5' UTR reporter expression | cell-based PrP 5' UTR mRNA reporter, plate reader | inhibition, % (test concentration not listed) | hit rate 0.35% among 340,000;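 active = every replicate at 50% or more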;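 also: 0 = median of the neutral control wells; tested in H4 reporter cells; numbers are from one replicate; inactives centre near -14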
Bead autofluor: compound fluorescence in toxin protease inhibitor counterscreen; AID 624483; compound autofluorescence counterscreen, microsphere flow cytometry; active compounds read high; hit rate 3.1% among 360,000; fluorescence intensity (test concentration not listed);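 active = at least 3 SD above the mean of all compounds, about 16000 in these data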;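 also: 100 nL of 1 mM stock went into each well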
BJeLR lethal: kills HRASV12-expressing BJeLR cells; BJeLR (HRASV12) viability, CellTiter-Glo ATP luminescence, 48 h; reference of the scale not given here; inhibition, % (no concentration beside the values); hit rate 0.17% among 300,000;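 active = replicate mean above 50%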;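 also: 50 nL library stock added to about 25 µL; numbers are from one replicate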
Sa RN4220 lethal: kills Staphylococcus aureus RN4220; S. aureus RN4220 growth, OD600, 16 h; hit rate 0.33% among 330,000; inhibition, % (test concentration not listed);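 active = z-score of -3 or lower and OD600 up to 0.18 on both plates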;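 also: plate controls were untreated cells for no effect and reference antibiotic for full effect; stock transfer was 100 nL into about 80 µL; one replicate is shown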
Mtb hypoxia rep: Mtb hypoxia fluorescent reporter inhibition. AID 1159583. fluorescence inhibition, % (test concentration not listed). M. tuberculosis hypoxia-regulated fluorescent reporter, fluorescence. hit rate 0.1% among 300,000;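 active = 35 to 45% if threefold the growth effect, above 45% if 1.5-fold the growth effect; inactive = the rest, general growth blockers included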;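 also: wells of about 50 µL received 100 nL stock; 0% = vehicle wells and 100% = reference inhibitor wells; whole bacteria with a GFP reporter of the hypoxia response; strong numbers were not always called active; many hits fall short of the cut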
ugtP null kill: compounds lethal to S. aureus RN4220 ugtP deletion mutant | OD600 growth, 16 h; some inactives read as strong as hits | growth inhibition, % (no concentration beside the values) | hit rate 0.54% among 330,000 | AID 1259309;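 active = z-score under -3 and OD600 up to 0.15 on both plates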;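 also: plate controls were untreated wells for no effect and antibiotic for full effect; wells of about 80 µL received 100 nL stock; the first replicate is given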
Mtb hypoxia rep growth: second read-out of Mtb hypoxia rep, no call of its own (marks repeat the call); growth inhibition, %; measured here: M. tuberculosis growth (absorbance);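 0% = vehicle and 100% = reference antibiotic; read after six days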
* marks the source's active call; other numbers are inactive results; · = no result given; & = joins results of further samples.

SMILES	PrP UTR inh	Bead autofluor	BJeLR lethal	Sa RN4220 lethal	Mtb hypoxia rep	Mtb hypoxia rep growth	ugtP null kill
OCCC1CC(O)C(O)[C@@]2(Cc3ccccc3CCO2)O1 (some centres undefined)	·	·	·	5.9&3.5&4.1&3.2	10&-7&-1&10	1&4&-2&-1	0&1&5&-6
Cn1nc(C(=O)Nc2cccc(S(N)(=O)=O)c2)c2ccccc2c1=O	-20	4880	5	0.5	3	5	11
NNC(=O)CNC(c1ccccc1)c1cc(Br)ccc1NC(=O)c1ccc(Br)cc1 (centres undefined)	-9	1961	7	-1.6	6	3	-8
CCOc1cc(C(=O)N2CCN(c3ccccn3)CC2)cc(OCC)c1OCC	-19	3265	4	-1.6	21	9	1
Cc1nn(-c2ccc3nnc(Br)n3n2)c(C)c1Br	·	·	3	1.2	·	·	5
COCc1c(C(=O)N2CCN(Cc3ccc4c(c3)OCO4)CC2)oc2ccccc12	-8	4108	·	-2.5	6	9	0
O=C1C2C3c4ccccc4C(c4ccccc43)[C@@H]2C(=O)N1c1nc(-c2ccccc2)cs1 (some centres undefined)	-24	8783	-19	·	·	·	·
CCn1c(SC(C)C)nnc1C1CCN(S(=O)(=O)c2ccc(OC)cc2)CC1	-23	3684	-15	5.3	3	6	5
O=C(Nc1cccc(C(F)(F)F)c1)c1cc2ncc(Br)cn2n1	-2	22276*	3	2.0	1	16	-9
O=C([C@H](Cc1ccccc1)N1C(=O)c2ccccc2C1=O)N1CCOCC1	-10	4110	-4	3.5	-2	18	2
Cc1cc(NC(=O)Nc2ccccc2Cl)no1	-24	3810	18	-8.8	7	18	20
CC(C)(C)c1ccc(OCCCN2CCCC2)cc1	-11	4263	6	5.9	8	7	7
COc1ccc(NS(=O)(=O)c2csc(C(=O)N3CCCC3)c2)cc1	-24	4397	6	1.4	8	4	9
CCOC(=O)c1c(N)c(C#N)c2n1CCCC2	-20	2414	-5	-3.8	·	·	2
O=C(NC1CCCCC1)NC1CC2CCC(C1)N2C(=S)NCc1ccco1 (centres undefined)	-11	10502	1	0.1	3	11	-3
CCOc1ccccc1N1CCN(C(=O)c2cc3c(C)cc(C)cc3[nH]2)CC1	-17	3107	-4	-3.0	-7	-8	-10
COc1ccc(NC(=O)CN2CCC3(O)CCCCC3C2c2cc(OC)ccc2OC)cc1 (centres undefined)	-13	3613	2	6.0	1	13	7
C=CCc1cccc(C=Nc2nc3ccccc3n2CC)c1O	·	·	·	2.6	8	3	7
Cn1c(COc2ccc([N+](=O)[O-])cc2)nnc1SCC(N)=O	-12	4550	11	2.8	-1	8	1
Cc1cccc(NC(=S)N2CCC(NC(=O)c3ccco3)CC2)c1	-14	4403	-6	2.9	5	-2	12

2 neighbouring records out of the list so far, for reference:
SMILES	PrP UTR inh	Bead autofluor	BJeLR lethal	Sa RN4220 lethal	Mtb hypoxia rep	Mtb hypoxia rep growth	ugtP null kill
Cn1c(COc2ccc([N+](=O)[O-])cc2)nnc1SCC(N)=O	-12	4550	11	2.8	-1	8	1
Cc1cccc(NC(=S)N2CCC(NC(=O)c3ccco3)CC2)c1	-14	4403	-6	2.9	5	-2	12

Following part.
SMILES	PrP UTR inh	Bead autofluor	BJeLR lethal	Sa RN4220 lethal	Mtb hypoxia rep	Mtb hypoxia rep growth	ugtP null kill
O=C(CN(C(=O)c1csnn1)c1ccc(F)c(Cl)c1)NC1CCCC1	-20	3591	-10	0.3	3	11	4
CN1/C(=C/C=NNC(=O)c2ccc([N+](=O)[O-])cc2)C(C)(C)c2ccccc21	·	·	·	-0.3	-5	0	10
COc1ccc(/C=C/C(=O)c2ccccc2O)cc1	-60	3573	-3	·	·	·	·
CCOC(=O)N(c1ccccc1)P1(=S)OCCO1	0	·	2	26	-5	-9	20
Cc1ccc(C(C)NC(=O)/C(C#N)=C\c2c(C)[nH]c3ccccc23)cc1 (centres undefined)	·	11242	-9	-5.6	12	8	-27
Cc1ccc(S(=O)(=O)NCC(=O)OC(C)C(=O)NC2CCCCC2C)cc1C (centres undefined)	-20	·	·	3.4	-4	6	0
CC(=O)Nc1ccc(NC(=O)c2c([N+](=O)[O-])c(C(C)(C)C)nn2C)cc1	-9	4248	-2	3.9	5	3	6
COC(=O)/C(C#N)=C/c1cc(C)sc1C	-9	4321	-4	1.2	-1	2	2
NC(=O)CC1NC(=O)CNC(=O)c2cc([N+](=O)[O-])cc(I)c2NCCC(C(N)=O)NC1=O (centres undefined)	·	·	·	4.2	13	9	0
CC(=O)Nc1cccc(C(=O)N/N=C/c2c[nH]c3ccccc23)c1	-24	3571	0	·	·	·	·

Arranged by SMILES length (lowest first): 5 of the compounds above.
SMILES	PrP UTR inh	Bead autofluor	BJeLR lethal	Sa RN4220 lethal	Mtb hypoxia rep	Mtb hypoxia rep growth	ugtP null kill
COC(=O)/C(C#N)=C/c1cc(C)sc1C	-9	4321	-4	1.2	-1	2	2
CCOC(=O)N(c1ccccc1)P1(=S)OCCO1	0	·	2	26	-5	-9	20
COc1ccc(/C=C/C(=O)c2ccccc2O)cc1	-60	3573	-3	·	·	·	·
Cc1ccc(C(C)NC(=O)/C(C#N)=C\c2c(C)[nH]c3ccccc23)cc1 (centres undefined)	·	11242	-9	-5.6	12	8	-27
CN1/C(=C/C=NNC(=O)c2ccc([N+](=O)[O-])cc2)C(C)(C)c2ccccc21	·	·	·	-0.3	-5	0	10

Later entries
SMILES	PrP UTR inh	Bead autofluor	BJeLR lethal	Sa RN4220 lethal	Mtb hypoxia rep	Mtb hypoxia rep growth	ugtP null kill
N=c1sccn1CC(=O)Nc1cccc(S(=O)(=O)N2CCCCCC2)c1	-44	7359	7	2.8	5	4	2
CCOc1ccc(NC(=O)CN(C)C(=O)c2nc3nc(C)cc(C)n3n2)cc1OCC	-18	3818	·	-4.0	-3	4	-8
c1ccc(OCCOc2ncnc3ccccc23)cc1	-51	4184	2	-0.2	16	10	1
O=C(NC(=S)Nc1ccccc1Br)C1CCC1	-17	4684	1	8.1	4	5	23
CCCn1nnc(NC(=O)/C=C/c2ccco2)n1	-29	6023	-2	1.6	3	6	-6
Cc1ccccc1CS(=O)(=O)CCC(=O)NCCN1CCN(c2cccc(Cl)c2)CC1	-25	7256	-4	7.1	6	5	-1
COc1ccc(C2=NN(C(=O)CCC(=O)O)C(c3ccc(OC)cc3)C2)cc1 (centres undefined)	-7	3457	0	·	·	·	·
Cc1ccc(Cc2cnc(NC(=O)/C(C#N)=C/c3ccc(-c4cccc([N+](=O)[O-])c4)o3)s2)cc1	-59	3110	-7	6.3	·	·	5
CCN(CC)CCNC(=O)c1ccc(Sc2ccc(Cl)cc2)c(NC(C)=O)c1	-19	4350	6	0.3	9	-2	5
N/C(CN1CCCC1=O)=N\OC(=O)c1ccc(Cl)cc1	-27	3816	-1	4.3	13	1	9

Some of the entries above, set out differently:
Values run as follows: PrP UTR inh | Bead autofluor | BJeLR lethal | Sa RN4220 lethal | Mtb hypoxia rep | Mtb hypoxia rep growth | ugtP null kill
- O=C(NC(=S)Nc1ccccc1Br)C1CCC1
 : -17 | 4684 | 1 | 8.1 | 4 | 5 | 23
- CCCn1nnc(NC(=O)/C=C/c2ccco2)n1
 : -29 | 6023 | -2 | 1.6 | 3 | 6 | -6

Screens from PubChem.
